Assay outcomes as filed in PubChem BioAssay.
Anthrax LT inh: qHTS Assay for Anthrax Lethal Toxin Internalization; Cells, anthrax lethal toxin internalization, FRET ratio (460/530); Potency, µM (titrated, usually from 40 µM), for inactives: at the highest dose activity change, negative = inhibition, hits mostly inhibitors; 70,000 tested, 0.67% active; AID 912, 2007; active = well fitted falling ratio curve with the 530 nm signal flat; inconclusive = other ratio curves, or a change in one channel alone; inactive = flat curves in the ratio and both channels; the % refers to the ratio; also: % is scaled to controls: 0 for no effect and ±100 for the full control effect; nearly all actives have a fitted effect of over 50% in size; tested in ME-180 cells; beta-lactamase reporter
Prx2 Sm inh: Schistosoma Mansoni Peroxiredoxins (Prx2); Schistosoma mansoni peroxiredoxin 2 (Prx2); S. mansoni Prx2 activity coupled to TGR/GSH (TGR is thioredoxin glutathione reductase), NADPH fluorescence loss, qHTS; some inactives read as strong as hits; Potency, µM; 65,000 tested, 0.07% active; active means full or partial inhibition curve with a strong effect at the top dose; inconclusive means weaker partial or single-point curve; inactive means no accepted curve; also: series up to 57 µM; many of its hits are not listed in these tables
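Activity is read as the drop in NADPH fluorescence (365/450 nm), recorded every 30 sec for 8 min after H2O2 addition. Prx2 is coupled to TGR-driven NADPH oxidation through glutathione, in phosphate buffer pH 7.4.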
* = called active by the depositor; ? = inconclusive; . = not tested or not shown; & = joins results of further samples; [ ] = dose if it differs, or a comment. Potency is read from the fitted curve at half-maximal effect. This is a subset, so the mix of outcomes need not match the whole.

SMILES	Anthrax LT inh	Prx2 Sm inh
CCOc1ccc(-n2c(SCC(=O)Nc3ccc(OC)cc3)nc3c(c2=O)SCC3)cc1	1.3%	>57
O=C(Nc1ccccc1)N1CC[C@@]2(CCCN(C(=O)c3ccco3)C2)C1	-5.3%	>57
O=C(Cn1ncc2c(=O)oc3ccccc3c21)NCCN1CCN(c2ccccc2F)CC1	-0.3%	>57
C=CCNC(=O)CN(c1ccc(F)c(Cl)c1)S(C)(=O)=O	-1.5%	>57
COC(=O)C1C(=O)c2c([nH]c(C(=O)OC3CCCCCC3)c2C)CC1C (stereo not given)	1.0%	>57
CCOC(=O)CC(=O)c1cc(OC)c(OC)c(OC)c1	14.3%	>57
COCCn1nnnc1C(c1cc2ccc(OC)cc2[nH]c1=O)N1CCN(C2CCCCC2)CC1 (stereo not given)	-0.8%	>57
COc1ccccc1N1CCN(C(c2cc3cc(C)ccc3[nH]c2=O)c2nnnn2C2CCCC2)CC1 (stereo not given)	3.6%	>57
COc1ccc(S(=O)(=O)N2CCCC2C(=O)Nc2nnc(-c3cccnc3)s2)cc1 (stereo not given)	-2.8%	>57
CN=C1c2ccccc2CN1c1cccc(C(=O)OC)c1	5.9%	>57
Cc1ccc2c(c1)NC(=O)C(CC(=O)NCCCN1CCN(c3cc(C)ccc3C)CC1)O2 (stereo not given)	?	>57
CC1CCN(C(=O)CSc2nnc(CNC(=O)COc3ccc(Cl)cc3)o2)CC1	10.8%	>57
CCOC(=O)c1cc2nc(Nc3ccc(OC)cc3)sc2s1	?	>57
Cc1ccn2c(-c3csc(NCc4ccco4)n3)c(C)nc2c1	?	.
CCCCn1c(O)c(C(C)=NCCCN(CC)CC)c(=O)[nH]c1=O	6.9%	>57
CSc1nc(C)cc(OCC(=O)N2CCOCC2)n1	8.6%	>57
CC1CCN(c2nnc(N3CCC(C)CC3)c3ccccc23)CC1	-4.7%	>57
O=C(CCN1CCCCCC1)Nc1ccc(F)c(F)c1	5.8%	.
CCOC(=O)N1CCC(NC(=O)COc2cc(=O)n(C)c3ccccc23)CC1	4.1%	>57
CSc1nc(-c2ccco2)nn1C(=O)c1ccco1	-11.6%	>57
Cc1cc(NCCCN2CCOCC2)n2ncc(-c3ccc(Cl)cc3)c2n1	.	>57
COC(=O)CNC(=O)c1cn(CC(C)C)c(=O)c2cc(OC)c(OC)cc12	-1.8%	>57
Cc1c(C(=O)NCCCN2CCCC2=O)oc2ccccc12	?	>57
CN(C)c1ncc2nc(CCc3ccccc3)c(=O)n(Cc3cccs3)c2n1	?	>57
CCOC(=O)C1CCN(C(=O)CCNC(=O)Cn2ccc3ccccc3c2=O)CC1	?	>57

Remaining list, next part.
SMILES	Anthrax LT inh	Prx2 Sm inh
COc1ccc(-c2nc(CSCC(=O)N3CCN(C(=O)c4ccco4)CC3)c(C)o2)cc1OC	-2.1%	>57
CC(=O)N1CCC2(CC1)CCN(C(=O)Nc1cccc(C#N)c1)CC2	-3.9%	>57
CCC(=O)O[C@H](CC(=O)O)C[N+](C)(C)C	?	>57
COc1ccc(CSc2nncn2N)cc1Br	-3.4%	>57
CCc1nnc(NC(=O)CCC(=O)N2CCN(Cc3cc(F)ccc3OC)CC2)s1	-13.3%	>57
CCCCOCCCNC(=O)c1ccc(NC(C)=O)cc1	-8.6%	.
CCOC(=O)c1oc2cccc(OC(C)=O)c2c1C	?	>57
CCNc1ncc2nc(-c3ccc(OC)cc3)c(=O)n(C[C@H]3CCCO3)c2n1	?	>11.4
N=C(N)S[C@H]1c2ccccc2-c2cc([N+](=O)[O-])ccc21	?	>57
COC(=O)c1ccccc1NC(=O)CN1CCN(C(=O)c2ccco2)CC1	-3.2%	?
CCOC(=O)N1CCN(CC(=O)N2c3ccccc3CC2C)CC1 (stereo not given)	-8.5%	>57
O=C(C1CCC1)N1CCc2cc(S(=O)(=O)NCc3cccnc3)ccc21	1.1%	>57
CCN1CCN(c2cc(C)c3cc(NC(=O)Cc4ccc(OC)c(OC)c4)ccc3n2)CC1	?	>57
CCCCCOC(=O)c1[nH]c2c(c1C)C(=O)C(C(=O)OC)C(C)C2 (stereo not given)	-0.4%	>57
CC(=O)NC1(c2ccccc2)CCN(c2nc(C)cc(C)n2)CC1	-4.0%	>57
O=C(Nc1ccccc1C(=O)N1CCCCCC1)c1cccc(S(=O)(=O)N2CCOCC2)c1	4.2%	>57
CC(=O)Cc1nsc(NC(=O)c2ccccc2)n1	8.7%	>57
CCOC(=O)c1ccccc1NC(=O)c1c(F)c(F)c(F)c(F)c1F	?	>57
Cc1ccc(S(=O)(=O)N2CCN(C)CC2)cc1-c1nnc2c3ccccc3c(C)nn12	?	>57
COc1ccc(-c2nnc3ccc(SCC(=O)N4CCN(c5ccccc5)CC4)nn23)cc1	1.1%	>57
CCOC(=O)CCc1c(C)nc2cc(-c3ccc(Cl)cc3)[nH]n2c1=O	-8.0%	>57
O=C(CC1Oc2ccc(Cl)cc2NC1=O)NC1CCCCCC1 (stereo not given)	-3.2%	>57
COC(=O)CSc1nnc(CNc2ccc(Cl)cc2)n1Cc1ccccc1	3.7%	>57
Cc1noc(C)c1S(=O)(=O)N(CC(=O)N1CCCCCC1)c1ccc(C(C)C)cc1	-18.1%	>57
c1ccc(C(c2nnnn2C2CCCCC2)N2CCc3ccccc3C2)nc1 (stereo not given)	-8.8%	>57

Following part
SMILES	Anthrax LT inh	Prx2 Sm inh
OC(Cc1cccnc1)(c1ccccc1)c1ccccc1	-0.3%[8 µM]	>57
COc1ccccc1OC[C@H](O)CO	5.5%[3.58 µM]	>57
COc1cccc(NC2CC(=O)N(CCc3ccccc3)C2=O)c1 (stereo not given)	-7.5%	>57
O=C(c1sccc1-n1cccc1)N1CCCC1	8.3%	>57
O=C(C(F)C(F)(F)F)N1CCN(c2ccccc2)CC1 (stereo not given)	3.9%	>57
COc1cccc(-c2nc(=S)c3c(n2Cc2ccco2)CCCC3)c1	.	>57
CC(C(=O)NCC1(c2ccccc2)CCCC1)N1CCOCC1 (stereo not given)	-9.5%	>57
Cc1ccc(-c2nnc(CSc3nc(C)nc4sc(C)c(C)c34)o2)cc1	3.6%	>57
CC1CCN(C(=O)CSc2ccc(-c3ccc(F)cc3)nn2)CC1	7.9%	>57
CCOC(=O)C1=C(C)NC(C)=C(C(=O)OCC)C1c1ccc(OC)cc1	-2.0%	>57
CC(=O)C1=C(C)NC(SCC(=O)c2ccc(Cl)cc2Cl)=C(C#N)C1c1ccco1 (stereo not given)	?	.
S=c1nc(-c2cccc(Br)c2)[nH][nH]1	5.5%	>57
O=S(=O)(c1ccc(Cl)c(C(F)(F)F)c1)N1CCN(CC(O)COCC2CCCO2)CC1 (stereo not given)	2.0%	>57
CCNC(=O)COc1ccc2ccccc2c1	-3.6%	.
CCOC(=O)c1cccc(NC(=O)C2CCC(CNc3c(N4CCOCC4)c(=O)c3=O)CC2)c1 (stereo not given)	4.6%	>57
CCOc1ccccc1N1C(=O)CC(Nc2ccc(N3CCOCC3)cc2)C1=O (stereo not given)	4.7%	>57
O=C(O)c1cc(-c2ccc(-c3ccc(-c4cc(C(=O)O)c5cc(Cl)ccc5n4)cc3)cc2)nc2ccc(Cl)cc12	10.2%[8 µM]	>57
O=C(NCCN1CCOCC1)NC1(C(F)(F)F)Oc2ccc(Cl)cc2O1 (stereo not given)	10.1%	>57
O=C(Nc1ccc(-c2noc(CCc3ccccc3)n2)cc1)c1cccnc1	10µM*	>57
O=C(CCCCn1c(=O)c2ccccc2n(Cc2ccc(F)cc2)c1=O)NCc1ccco1	-16.9%	>57
CCCn1c(C(O)c2cc(OC)ccc2OC)nc2ccccc21 (stereo not given)	-5.6%	>57
CN(c1cccc(NC(=O)Nc2cccc(Cl)c2)c1)S(C)(=O)=O	?	>57
COc1ccc(CNc2nc3nc(-c4ccccc4)cc(=O)n3[nH]2)cc1OC	15.7%	>57
CCS(=O)(=O)Nc1ccc2c(c1)N(C(C)=O)c1ccccc1CC2	?	>57
CCOC(=O)c1sc(NC(=O)CSc2nc(-c3ccco3)cc(C(F)(F)F)n2)c(C#N)c1C	-9.4%	>57

Next part
SMILES	Anthrax LT inh	Prx2 Sm inh
COc1ccccc1-n1c(SCC(=O)N2CCCC2)nc2cccnc21	11.6%	>57
NS(=O)(=O)c1cc2c(cc1Cl)N[C@@H](CC1CCCC1)NS2(=O)=O	-1.9%[3.58 µM]	>57
CCSc1nnc(NC(=O)C2CC=CCC2C(=O)O)s1 (stereo not given)	2.0%	.
Cc1oc(-c2ccccc2)nc1C(=O)OCC(=O)NC(=O)NCC(C)C	-0.8%	>57
O=C(c1cccc(S(=O)(=O)NCCOc2ccccc2)c1)N1CCN(c2ncccn2)CC1	-21.4%	>57
NC(=O)Cn1c(S(=O)(=O)Cc2ccccc2)nc2ccccc21	-8.2%	>57
O=C1CC(N2CCC(C(=O)N3CCCCC3)CC2)C(=O)N1 (stereo not given)	8.6%	>57
COc1ccc(-c2nc(CS(=O)(=O)CC(=O)Nc3ccc(Cl)cc3)c(C)o2)cc1	?	>57
COCCn1c(=O)c(-c2ccc(OC)cc2)nc2cnc(Oc3ccccc3)nc21	?	>57
COc1ccc(NC(=O)CN(c2ccc(C)cc2)S(C)(=O)=O)c(OC)c1	7.8%	.
CN(C)C(=O)c1ccc(-c2nccc(NCc3cccnc3)n2)cc1	13.4%	>57
CCCN(CC1CC1)c1nc(C)nc(Nc2c(Cl)cc(Cl)cc2Cl)c1Cl	?	>25.6&>57
O=C(CCCn1c(=O)oc2ccccc21)Nc1cccnc1	-10.1%	>57
[O-][n+]1onc2c1CCc1nnccc1-2	2.5%	>57
COC(=O)c1oc2ccc(Br)cc2c1NC(=O)c1ccccc1	.	>57
COC(=O)c1ccccc1NC(=O)CSc1ccccn1	2.8%	>57
CCC(C)NC(=O)CCCCCn1c(=O)[nH]c2cc(OC)c(OC)cc2c1=O (stereo not given)	-4.7%	>57
COc1ccc(C(=O)NCCn2ccc3ccccc32)cc1	21.4%	>57
C=CCSc1nnc(NC(=O)CSc2ccccn2)s1	6.0%	>57
COc1cccc(C(=O)Nc2nc(-c3ccc(S(=O)(=O)N4CCOCC4)cc3)cs2)c1	.	>57
COc1cc(C(=O)N2CCC(NC(=O)C(Cc3ccccc3)NC(C)=O)CC2)cc(OC)c1OC (stereo not given)	9.3%	>57
CCOC(=O)c1cc2occc2n1CC(=O)NC1CCCCC1C (stereo not given)	-0.3%	>57
NC(N)=Nc1ccc(-c2ccc(N=C(N)N)cc2)cc1	0.8%[8 µM]	>57
CCn1c2ccccc2c2cc(CN3CCN(C(=O)c4ccco4)CC3)ccc21	?	.
COc1cccc(-c2cc(NCc3cccnc3)ncn2)c1	8.4%	>57

In a second layout: 4 of the compounds above
smiles,Anthrax LT inh,Prx2 Sm inh
O=C1CC(N2CCC(C(=O)N3CCCCC3)CC2)C(=O)N1 (stereo not given),8.6%,>57
COc1ccc(-c2nc(CS(=O)(=O)CC(=O)Nc3ccc(Cl)cc3)c(C)o2)cc1,?,>57
COCCn1c(=O)c(-c2ccc(OC)cc2)nc2cnc(Oc3ccccc3)nc21,?,>57
COc1ccc(NC(=O)CN(c2ccc(C)cc2)S(C)(=O)=O)c(OC)c1,7.8%,.

The listing picks up, starting 2 compounds before the break.
SMILES	Anthrax LT inh	Prx2 Sm inh
CCn1c2ccccc2c2cc(CN3CCN(C(=O)c4ccco4)CC3)ccc21	?	.
COc1cccc(-c2cc(NCc3cccnc3)ncn2)c1	8.4%	>57
O=C(c1cc(-c2ccc3c(c2)OCO3)on1)N1CCN(c2ccc(F)cc2)CC1	0.7%	>57
CCCCCCc1c(C[C@H](N)C(=O)O)o[nH]c1=O	?	>57&>57
O=C(COc1ccccc1)c1cn(CC(=O)N2CCOCC2)c2ccccc12	-14.4%	>57
CC(C)N(C(=O)CSc1nnc(CN2CCCCCC2=O)n1-c1ccccn1)C(C)C	0.9%	>57
CCC(C)C(=O)Nc1cc(OC)c(OC)cc1C(=O)O (stereo not given)	-8.0%	>57
CCCOc1ccc(NC2=CC(=O)CC(C)(C)C2)cc1	1.7%	.
CC1CCC2C(=O)N3C(CCC(C)[C@@H]3c3cccc(N4CCOCC4)c3)C(=O)N2C1c1cccc(Br)c1 (stereo not given in full)	-32.0%[8 µM]	.
N#CC1=C(N)N(c2ccccc2)C(c2ccco2)C1(C#N)C#N (stereo not given)	-6.6%	>57
CCCC(=O)Nc1c2c(nn1-c1ccc(C)cc1C)CSC2	10.4%	>57
Cc1cnc(CNc2ncncc2-c2ccccc2Cl)cn1	-0.7%	>57
CCN(CC)S(=O)(=O)c1ccc(C(=O)OCC(=O)N2CCN(C(=O)c3ccco3)CC2)cc1	0.8%	>57
CC1(C)C(=O)Nc2ccccc2N1C(=O)COC(=O)C12CC3CC(CC(O)(C3)C1)C2	20.8%	>57

7 entries from above, reformatted.
Every second line gives: Anthrax LT inh | Prx2 Sm inh
- CCNc1ncc2nc(-c3ccc(OC)cc3)c(=O)n(C[C@H]3CCCO3)c2n1
→ ? | >11.4
- COC(=O)CNC(=O)c1cn(CC(C)C)c(=O)c2cc(OC)c(OC)cc12
→ -1.8% | >57
- S=c1nc(-c2cccc(Br)c2)[nH][nH]1
→ 5.5% | >57
- COc1ccc(CNc2nc3nc(-c4ccccc4)cc(=O)n3[nH]2)cc1OC
→ 15.7% | >57
- CCN1CCN(c2cc(C)c3cc(NC(=O)Cc4ccc(OC)c(OC)c4)ccc3n2)CC1
→ ? | >57
- CCCCCOC(=O)c1[nH]c2c(c1C)C(=O)C(C(=O)OC)C(C)C2 (stereo not given)
→ -0.4% | >57
- N#CC1=C(N)N(c2ccccc2)C(c2ccco2)C1(C#N)C#N (stereo not given)
→ -6.6% | >57
